# High-throughput results (PubChem BioAssay)
# NPYLR7 ag: mosquito NPYLR7 agonism | HEK293T NPYLR7/Galpha15, GCaMP6s calcium fluorescence | activation, % at 10 µM | hit rate 0.15% among 270,000; in the data active = activation above about 40%;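 also: 0% = vehicle and 100% = reference agonist at the receptor; some compounds past the cut are filed as inactive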
# NPYLR7 ag max-min: second read-out of NPYLR7 ag, no call of its own (marks repeat the call); activation, %; measured here: Max-Min RFU normalised activation; some inactives read as strong as hits;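 span of the calcium signal over five minutes; 0% = vehicle and 100% = native peptide agonist; compound fluorescence can raise it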
# * marks the source's active call; other numbers are inactive results; & = joins results of further samples. Some of the compounds tested. The share of hits here may be higher or lower than overall.
# Order of values – NPYLR7 ag, NPYLR7 ag max-min
CCCCC(=O)N1CCN(C(=O)c2cc(-c3ccc(OC)cc3)n(-c3cccc(OC)c3)c2C)CC1
→ -3, 0
COCCCN(CC(=O)N(CCc1c[nH]c2ccccc12)Cc1ccc(F)cc1)C(=O)Nc1ccc(F)c(F)c1
→ 15, 11
COCC(=O)N(Cc1cccc(OS(=O)(=O)c2ccc(F)cc2)c1)Cc1ccco1
→ 22, 27
COc1cc(OC)cc(C(=O)N2CCN(C(c3ccc(Cl)cc3)c3ccc(Cl)cc3)CC2)c1
→ -3, -1
CS(=O)(=O)c1ccc2c(c1)CCCN2C(=O)CCc1cccc(F)c1F
→ 0, 2
O=S(=O)(c1ccc(F)cc1)N1CCCC(C(F)(F)F)C1 (stereo not drawn)
→ 10, 9
N#CC1(NC(=O)CN2C(=O)NC3(CCCCC3)C2=O)CCCC1
→ 7, 5
CCOC(=O)c1nc2ccccc2nc1N1CCCN(C(=O)CCSC)CC1
→ 5, 3
Cn1ncc2c(NC3CCCN(c4ccccc4)C3=O)ncnc21 (stereo not drawn)
→ -3, 509
CC1(C)CC2CC(C)(CN2C(=O)CC(c2cccc([N+](=O)[O-])c2)c2c[nH]c3ccccc23)C1 (stereo not drawn)
→ 9, 16
Cc1ccccc1C(=O)NC(Cc1ccccc1)C(=O)Nc1nnc(-c2ccc(N(C)C)cc2)s1 (stereo not drawn)
→ -7, 3
COc1ccc(NC(=O)N2CC(C)CC(C)C2)cc1-n1nnnc1C (stereo not drawn)
→ 4, 0
N#CC1=C2C=CC=CN2C(=O)NC1c1cccc(Br)c1 (stereo not drawn)
→ 1, 0
Cc1cccc(C)c1N=c1scc(C)n1CCCNS(C)(=O)=O
→ 8, 7
COCCNC(=O)c1ccc(-n2nc(C)c(CCC(=O)OC)c2C)cc1
→ -9, -13
CC(C)Nc1ncccc1C(=O)NCCc1ccc(F)cc1
→ 3, 2
COCCN(Cc1nccn1Cc1c(F)cccc1Cl)C(=O)c1ccco1
→ -8, -9
C=c1ccccc1=C1NN=C(N=CC2N=C(c3cccc(OC)c3)OC2=O)S1 (stereo not drawn)
→ -5, -8
CCN1C(=O)C2(NCC(C)(C)S2)c2ccccc21 (stereo not drawn)
→ -2, 3
CC(C)Cc1cc(-c2nn3c(-c4cnccn4)nnc3s2)n[nH]1
→ -13, -20
COc1ccc(C(=O)Nc2cc(C)nn2-c2ncnc3c2cnn3-c2ccc(C)cc2C)cc1
→ 2, 2
CCNc1nc(NCC)nc(Nn2cnnc2)n1
→ -1, -4
O=C(CSc1ncnc2sc3c(c12)CCC3)N1CCCCC1
→ 6, 4
CC(Oc1ccc(-c2ccc(C#N)cc2)cc1)C(N)=O (stereo not drawn)
→ 5, 4
COc1ccc(C(=O)OCc2ccc(F)cc2)c(OC)c1OC
→ -7, -10
COC(=O)c1ccc(COC(CN2CCN(C(=O)c3cccnc3)CC2)c2cccc(OC)c2)cc1 (stereo not drawn)
→ -4, 8
CCCOc1ccc(C2=[N+]([O-])C3(CCCCC3=O)N(O)C2(C)C)cc1 (stereo not drawn)
→ -12, -25
Oc1ccccc1C1=NNC2(CC3CC2C2CCCC32)S1 (stereo not drawn)
→ -8, -11
O=C(CCCn1nc(-c2cccs2)ccc1=O)NCc1ccco1
→ 4, 10
O=C(Nc1cc(F)cc(C(F)(F)F)c1)N[C@H](Cc1ccccc1)C(=O)N1CCC(C(=O)N2CCCCC2)CC1
→ 27, 23
COC(=O)c1cc2n(n1)CCCN(Cc1cccn1-c1ccccn1)C2
→ 0, -9
Nc1ccnc(N2C[C@H](O)[C@@H](N3CCN(c4ccccn4)CC3)C2)n1
→ 0, -2
COCCCNC(=O)C=Cc1csc(-c2ccc(OC)cc2)n1
→ 1, 1
COc1ccc(C)c2sc(N(CCCN(C)C)C(=O)c3ccccc3S(C)(=O)=O)nc12
→ 0, -4
CCOC(=O)C(C)Sc1ccc(NC(C)=O)nn1 (stereo not drawn)
→ 2, 0
O=c1c2ccccc2nc2c3ccccc3c(NCc3ccccn3)nn12
→ -1, -2
CC(C)C(NC(=O)CNC(=O)c1ccccc1)c1cccs1 (stereo not drawn)
→ 2, 1
CC(C)(C)c1ccc(NP2(=O)C=C(c3ccccc3)SC(c3ccccc3)=C2)cc1
→ 15, 18
CN(Cc1ccsc1)C(=O)c1ccc(C#CC(C)(C)O)o1
→ 25, 14
CC1CCN(c2cn[nH]c(=O)c2Cl)CC1
→ 0, -1

# Profiles as entered above. Order of screens: NPYLR7 ag | NPYLR7 ag max-min
# COc1ccc(C(=O)OCc2ccc(F)cc2)c(OC)c1OC is listed as -7 | -10
# O=c1c2ccccc2nc2c3ccccc3c(NCc3ccccn3)nn12 is listed as -1 | -2
# COc1ccc(C)c2sc(N(CCCN(C)C)C(=O)c3ccccc3S(C)(=O)=O)nc12 is listed as 0 | -4
# O=C(CSc1ncnc2sc3c(c12)CCC3)N1CCCCC1 is listed as 6 | 4
# CCCOc1ccc(C2=[N+]([O-])C3(CCCCC3=O)N(O)C2(C)C)cc1 (stereo not drawn) is listed as -12 | -25

# (continued)
# Order of values – NPYLR7 ag, NPYLR7 ag max-min
COCC(=O)N(Cc1ccc(OC)c(OS(=O)(=O)c2ccc(OC)cc2)c1)C1CC1
→ 2, 8
COc1ccc(N2CC(NC(=O)N3CCCCC3)CC2=O)cc1OC (stereo not drawn)
→ 3, -1
CCOC(=O)c1ccc(OC2CC3CCC(C2)N3C(=O)c2ccc(CSc3nc(SC)ns3)cc2)cc1 (stereo not drawn)
→ 19, 6
CCOC(=O)c1ccoc1CNC(C)(CC)C(F)(F)F (stereo not drawn)
→ 3&6, 1&5
C=CCc1c(C)nc2c(-c3ccccc3)cnn2c1N1CCN(C)CC1
→ 2, 4
Cc1ccc(C(C)NC(=O)CSc2n[nH]c(=O)n2CC2CCCO2)cc1C (stereo not drawn)
→ 10, 5
OCC1(Cc2ccc(F)cc2F)CCCN(c2nc3ccccc3s2)C1 (stereo not drawn)
→ 2, 3
CCN(CC)c1onc(-c2ccccc2)c1CN(Cc1ccco1)C(=O)Cc1ccccc1
→ 0, 6
COc1ccc(S(=O)(=O)N2CCCC(C)C2)cc1N1CCN(C(=O)c2ccccc2OC(F)(F)F)CC1 (stereo not drawn)
→ 24, 11
Cn1c(CO)cnc1Sc1nccnc1C#N
→ -1, -2
COc1nn(C)cc1C(=O)Nc1ccccc1C
→ -1, 5
CCS(=O)(=O)N1CCN(C(=O)C2=C(C)NC(=O)NC2C)CC1 (stereo not drawn)
→ 1&0, 1&-1
CCN(CC)C(=O)N1CCC2(CCN(Cc3cnc(COC)nc3)CC2)CC1
→ -3, 6
Cc1cccc(NS(=O)(=O)c2cn(C)c(=O)n(C)c2=O)c1
→ -1, -2
COc1cc(NC(=S)N[C@H]2CO[C@H]3[C@@H]2OC[C@@H]3n2nnnc2Oc2cccc(N3CCOCC3)c2)cc(OC)c1
→ -9, -15
COc1ccc(C(=O)N2CCC3(CC2)CNC(=O)C3)c(C)c1
→ 7, -1
COc1cccc(-c2[nH]ncc2C(=O)N2CCN(C)C3(CCN(C)CC3)C2)c1
→ 14, 12
Cc1ccn2c(NC(=O)CC(C)CC(C)(C)C)c(-c3cccc(F)c3)nc2c1 (stereo not drawn)
→ -5, 1
NC(=O)CSc1ncc(-c2ccccc2)c(-c2ccccc2)n1
→ 4, 6
COC(=O)c1ccc(CSc2nc(=O)n3cccc(C)c3n2)cc1
→ 4, 0

# Three records drawn at random from those above, as already listed:
# Order of values – NPYLR7 ag, NPYLR7 ag max-min
C=CCc1c(C)nc2c(-c3ccccc3)cnn2c1N1CCN(C)CC1
→ 2, 4
COc1ccc(S(=O)(=O)N2CCCC(C)C2)cc1N1CCN(C(=O)c2ccccc2OC(F)(F)F)CC1 (stereo not drawn)
→ 24, 11
COc1ccc(C(=O)N2CCC3(CC2)CNC(=O)C3)c(C)c1
→ 7, -1

# Additional records.
# Order of values – NPYLR7 ag, NPYLR7 ag max-min
CCc1ccc2oc(=O)cc(-c3oc4ccccc4c3NC(C)=O)c2c1
→ -3, -7
COc1cccc(OCC2c3ccsc3CCN2C(=O)CN(C(=O)c2cccs2)C2CC2)c1 (stereo not drawn)
→ 0, 9
CCOC(=O)C(=O)N1CCN(c2nccc(-c3cccc(C(F)(F)F)c3)n2)CC1
→ 7, 2
CC(=O)Nc1ccc(Cl)c(C(=O)N(C)CCc2nc3ccccc3[nH]2)c1
→ 5, 7
Cn1cnc2cc(NC(=O)NCC3CCCc4ccccc43)ccc21 (stereo not drawn)
→ 0, -1
Cc1nc2nc(NCc3ccc(C(C)C)cc3)nn2c(C)c1Cl
→ -2, 22
CCCC(=O)N(CCCOC)CC(=O)N(Cc1ccc(F)cc1)Cc1sccc1C
→ 8, 11
O=C1CNC(=S)N1c1ccccc1F
→ 0, 6
CCc1[nH]c2c(CNS(=O)(=O)N(C)C)cc(C)cc2c1C
→ 0, -5
Cc1ccc(N2C(=O)CSC2c2ccccc2NC(=O)CCc2ccccc2)cc1 (stereo not drawn)
→ -6, 1
CC(C)CC(NS(=O)(=O)Cc1ccccc1)c1ccccc1 (stereo not drawn)
→ -6, -5
COc1cc(NC(=O)C(C)Sc2nnc(C(C)N(C)C)n2-c2ccc(Cl)cc2)cc(OC)c1 (stereo not drawn)
→ -2, 9
CCn1cc(CN(C)C(=O)c2ccc(NC(=O)c3ccoc3C)cc2)cn1
→ -6, -9
C[C@H]1C(NC(=O)CNC(=O)C2CC2(c2ccccc2)c2ccccc2)C[C@@H]2C[C@H]1C2(C)C (stereo partly drawn)
→ -1, -8
Cc1ccc2cc(CN3CCCC(N4CCCC4=O)C3)c(=O)[nH]c2c1 (stereo not drawn)
→ -2, -3
CCCCNC(=O)C1(C)CCCCN1C(=O)c1cncc(Br)c1 (stereo not drawn)
→ 1, 1
COc1ccc(-c2nnc(NC(=O)C3CCCN3C(=O)Nc3c(Cl)cccc3Cl)s2)cc1 (stereo not drawn)
→ 29, 28
NC(N)=NN=Cc1ccccc1
→ 4, 3
CCOC(=O)C1CCN(CC(=O)N2N=C(c3ccccc3F)CC2c2ccc(OC)cc2)CC1 (stereo not drawn)
→ -1, 7
CC(C)(O)CN(Cc1csc(COc2ccc(F)cc2)n1)C1CCOCC1
→ 2, 0
Cc1nn(-c2ccccc2)c2ncc(C(=O)N(C)c3ccccc3)c(Cl)c12
→ 22, 12
COCCn1c(-c2ccc(Cl)cc2)nn(CN2CCc3sccc3C2)c1=S
→ 10, 10
CC(=O)Nc1nc(-c2cccc(NC(=O)C3C(C(=O)O)C3(C)C)c2)cs1 (stereo not drawn)
→ -3, -7
O=C(CCC(=O)NC1CCCCCC1)NCCn1nnc2ccccc21
→ 7, -2
O=C1c2ccc(Br)cc2C(=O)N1CNc1cccc(F)c1
→ 4, 5
COc1ccc(CN2CCN(C3CCCC3)C(CCO)C2)c(Cl)c1OC (stereo not drawn)
→ -3, -4
CCN(CC(=O)NC1CCS(=O)(=O)C1)Cc1nc2sc3c(c2c(=O)[nH]1)CCC3 (stereo not drawn)
→ -5, -12
COc1ccc(-c2cc(CNC3CCSCC3)on2)cc1
→ 1, 1
N#CC1(C#N)C(C(=O)C23CC4CC(CC(C4)C2)C3)C12CCCCC2 (stereo not drawn)
→ 3, 4
Cc1cccc(C(N)=NOC(=O)c2ccccc2-c2ccccc2)c1
→ -15, -22
CCCC(C)C(=O)N1CCN(c2nccc(-c3ccc(OCC)cc3)n2)CC1 (stereo not drawn)
→ -4, 1
CCOC(=O)C1CCCCN1CC(=O)N1N=C(c2ccc(C)cc2C)CC1c1ccccc1F (stereo not drawn)
→ -4, 2
COCCNC(=O)CCN(Cc1ccccc1)c1nc(-c2ccccc2)nc2cc(Cl)ccc12
→ 0, 12
Cc1nn(S(=O)(=O)c2cccc([N+](=O)[O-])c2)c(C)c1S(=O)(=O)N1CCCC(C)C1 (stereo not drawn)
→ 3, 2
Cc1cc2cc(CNC(=O)c3ccc(OC(C)C)cc3)ccc2n1C
→ 6, 1
CNCCCN1C(=O)C(C)SC1c1ccccc1OC (stereo not drawn)
→ 3, -3
CCCNC(=S)N1CCc2cc(OC)c(OC)cc2C1CNS(=O)(=O)c1ccc(C)cc1 (stereo not drawn)
→ 3, 7
c1ccc(NC2CCCN(Cc3ccc4nsnc4c3)C2)cc1 (stereo not drawn)
→ 0&-4, -1&-6
Fc1ccccc1N1N=C(/C=C/c2cccs2)CC1c1cccs1 (stereo not drawn)
→ -3, -10
CC(C)c1nc(CC(=O)NCCc2ccc(C(=O)O)cc2)cs1
→ -7, -8
COCCN(Cc1ccc(OS(=O)(=O)c2ccc(F)cc2)cc1)C(=O)Nc1ccc(C)cc1C
→ 1, -7
Cc1nc2ncnn2c(N2CCN(S(=O)(=O)c3ccccc3OC(F)(F)F)CC2)c1Cc1ccccc1
→ -11, -12
O=C(c1c(F)cccc1F)N1CCc2ccccc2C1c1ccccc1Cl (stereo not drawn)
→ 24, 17
CCOC(=O)C1=C(C)NC2=C(C(=O)CC(c3ccccc3)C2)C1c1ccccc1[N+](=O)[O-] (stereo not drawn)
→ 5, 4
Cc1cccc(-n2c(-c3ccc(Cl)cc3)cc(C(=O)N3CCN(C(=O)c4ccccc4)CC3)c2C)c1
→ 9, 3
CCCOc1ccc(OS(=O)(=O)c2ncn(C)c2Cl)cc1
→ 2, 0
CN(C)C(CN=C1NS(=O)(=O)c2ccccc21)c1ccsc1 (stereo not drawn)
→ 1, -1
CCOC(=O)c1sc(N2C(=O)C(=O)C(=C(O)c3ccccc3)C2c2ccc(C)o2)nc1C (stereo not drawn)
→ 0, 0
Cc1cc(C)cc(COc2coc(CN3CCN(S(=O)(=O)c4ccc(S(C)(=O)=O)cc4)CC3)cc2=O)c1
→ 23, 11
Cc1c(-c2ccccc2)sc2nc[nH]c(=S)c12
→ -1, -3
O=C(NCCc1ccccn1)c1nn(-c2ccccc2F)c(=O)n(Cc2cccc(C(F)(F)F)c2)c1=O
→ 9, 6
Cc1cn2c3c(=O)n(CCC(C)C)c(=O)n(C)c3nc2n1C(C)C
→ 15, 7
CC(C)N(CC(=O)N(Cc1ccccc1)Cc1cccn1C)C(=O)c1ccc(C(C)(C)C)cc1
→ -3, 2
